Vif TR-FRET: HIV-1 Vif–A3G interaction blockers – biochemical, TR-FRET, GST-Vif 1-94, biotin-A3G peptide, dose response retest, primary screen (AID 1117319) | TR-FRET GST-Vif / biotin-A3G peptide binding; higher % means a stronger effect; test concentration not given here; strong numbers were not always called active | inhibition, %; hits with a dose series show IC50 in µM | hit rate 0.57% among 260,000;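 active = above the screen mean plus three standard deviations and confirmed in dose response; inconclusive = results disagree or hit not tested in dose response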;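 also: Vif residues 1-94 fused to GST binding biotinylated APOBEC3G peptide 110-148; 0% = full assay without inhibitor and 100% = GST in place of GST-Vif; retest series ran down from 100 µM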
RanGTP-Imp inh: inhibitors of RanGTP-importin-beta interaction, primary screen, biochemical, FRET, CFP-Ran, YFP-importin-beta, homogeneous | cell-free CFP-Ran/YFP-importin-beta FRET ratio | inhibition, % (test concentration not listed) | hit rate 1.1% among 300,000 | AID 2216;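 active = most replicates above 15%; inconclusive = exactly half above 15%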;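 also: 0% = DMSO wells and 100% = Ran loaded with GDP instead of GTP; wells of about 40 µL received 100 nL stock; the first replicate is given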
A1 inh: inhibitors of the anti-apoptotic protein A1, read as caspase activation. MEF A1-2A-BIM cells, Caspase-Glo 3/7 luminescence, 3 h; percent of clofoctol response, vehicle zero. hit rate 0.066% among 330,000. caspase activation, % (test concentration not listed). AID 2462;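 active = over half of replicate activation scores above 10%, or exactly half above 10 with the replicate mean above 10; inconclusive = replicate mean below 10 yet half the replicates above 10; inactive = over half of replicates below 10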;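 also: wells of about 30 µL received 50 nL stock; many hits fall short of the cut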
MLL AF4-AF9 inh: inhibitors of human MLL-AF4/AF9 interaction. P42568. AlphaScreen, biotin-AF4 peptide binding to FLAG-AF9. inhibition, % at 10 µM. hit rate 0.47% among 350,000;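 active = every replicate reaching a set inhibition limit, whatever the replicate mean, cut at about 25% in these data; inconclusive = mean inhibition reaches that limit but some replicates miss it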;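 also: 0% = plate neutral control median and 100% = total signal loss; the record names both 10 and 1 µM as test concentration; the first replicate is given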
Target sequence (P42568 whole entry, looked up): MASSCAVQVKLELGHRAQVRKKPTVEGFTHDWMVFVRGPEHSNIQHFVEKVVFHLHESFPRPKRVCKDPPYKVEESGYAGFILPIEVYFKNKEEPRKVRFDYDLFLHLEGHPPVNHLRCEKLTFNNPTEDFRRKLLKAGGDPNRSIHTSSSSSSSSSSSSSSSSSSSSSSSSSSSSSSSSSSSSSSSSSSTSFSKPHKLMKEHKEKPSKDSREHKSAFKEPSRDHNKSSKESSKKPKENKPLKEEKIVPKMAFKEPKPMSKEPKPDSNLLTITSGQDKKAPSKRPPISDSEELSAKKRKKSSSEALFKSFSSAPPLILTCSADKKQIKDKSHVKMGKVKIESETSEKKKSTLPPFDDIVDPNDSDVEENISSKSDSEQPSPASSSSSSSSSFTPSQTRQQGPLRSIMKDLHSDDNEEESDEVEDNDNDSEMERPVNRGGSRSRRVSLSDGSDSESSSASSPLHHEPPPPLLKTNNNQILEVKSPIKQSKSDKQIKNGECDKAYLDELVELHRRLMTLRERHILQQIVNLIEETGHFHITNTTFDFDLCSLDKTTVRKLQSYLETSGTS
rRNA inh HTS: selective bacterial rRNA inhibition in E. coli; E. coli WT GFP vs humanized-ribosome RFP mutants, fluorescence, 24 h; hits give low values; DMSO median 0, no signal -100; GFP signal change (wild-type ribosome), % (test concentration not listed); hit rate 1.6% among 350,000;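 active = significant combined selectivity score with lowered wild-type GFP, culture density cut under 30%, mutant RFP and density less affected; inactive = any of these conditions unmet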; also: one replicate is shown; some compounds called inactive have numbers as strong as hits
T cruzi repl: blocks replication of Trypanosoma cruzi; hit rate 1.4% among 300,000; T. cruzi beta-gal in NIH3T3, luminescence, 90 h; inhibition, % (test concentration not listed);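 active = mean inhibition across valid replicates above about 55%, limit read from the data; inconclusive = mean below that limit but half or more replicates reach it; inactive = mean below it, under half of replicates reach it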;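 also: signal also drops with host cell toxicity which is not excluded here; 0% = plate median of DMSO wells and 100% = zero luminescence signal; higher percent means less beta-gal luminescence so fewer parasites; stock transfer was 50 nL into about 50 µL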
Calb FLC: affects C. albicans growth with fluconazole | C. albicans CaCi-2 (fluconazole-resistant clinical isolate) + fluconazole, Alamar Blue growth, 48 h | growth inhibition, % (test concentration not listed) | hit rate 0.57% among 300,000 | AID 1979;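 active = most replicates above 75%; inconclusive = exactly half above 75%; inactive = most below 75%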;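 also: all wells also contain fluconazole at 8 µg/ml as a sub-toxic cotreatment; 0% = median of DMSO wells and 100% = median of geldanamycin control wells; wells of about 8 µL received 7.5 nL stock; the first replicate is given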
Beta apoptosis: beta cell apoptosis inhibition | protection from apoptosis, % (no concentration beside the values) | hit rate 0.8% among 300,000 | INS-1E cytokine-induced death, ATP luminescence, 48 h; percent of positive-control rescue, neutral wells zero | AID 435005;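 active = all replicates at 75% or more, or half of them and the mean; inconclusive = half reach 75% but not the mean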;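 also: 0% = cytokine-treated negative control wells and 100% = positive control rescue; higher means more ATP so stronger rescue from cytokine killing; wells of about 40 µL received 100 nL stock; the first replicate is given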
rRNA inh HTS OD600: second read-out of rRNA inh HTS, no call of its own (marks repeat the call); OD600 change, %; measured here: OD600 growth;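 optical density of the mix in the first replicate; 0 = DMSO median and -100 = no signal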
rRNA inh HTS RFP: also measured in rRNA inh HTS; calls as there; RFP signal change, %; measured here: RFP humanized mutant strains;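 first replicate; 0 = DMSO median and -100 = no signal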
An asterisk follows results filed as active; ? = inconclusive; / = not tested or not shown; & = joins results of further samples.

SMILES	Vif TR-FRET	RanGTP-Imp inh	A1 inh	MLL AF4-AF9 inh	rRNA inh HTS	rRNA inh HTS OD600	rRNA inh HTS RFP	T cruzi repl	Calb FLC	Beta apoptosis
C=CC[C@H](CC(=O)N(CCO)Cc1ccccc1)C(=O)N[C@H](C)COC(=O)[C@@H](CC=C)Cc1ccc(F)cc1	/	/	0.1	4.2	-15	-23	3.6	/	/	-11
Cc1ccc(C(=O)C(C)OC(=O)C2CCN(c3ccc(C(F)(F)F)cn3)CC2)cc1C (stereo not given)	1%	8.5	-0.4	-24	6	5	3.8	37	/	0
O=C(NC1CCCc2ccccc21)c1n[nH]c(=O)c2ccccc12 (stereo not given)	4%	3.8	-0.2	-1.8	14	14	1.2	0	38	-2
CC(C)(C)c1ccc(NC(=O)COC(=O)C2=COCCO2)cc1	4%	-1.1	0.1	/	/	/	/	23	-3	-1
Cc1ccc(C2C=NN(c3ccccc3)C2=O)cc1 (stereo not given)	-1%	1.8	-0.8	8.1	5	0	-0.3	1	7	-7
CC(/C=C/c1ccc(O)cc1)=N/O	-1%	-0.9	-14	/	/	/	/	-4	21	-8
O=C(Nc1ccccc1)N1CCC(c2nc(-c3ccc(S(=O)(=O)N4CCOCC4)cc3)no2)CC1	-3%&-6%	-4.0	-0.1	/	/	/	/	-22	-4	14
CCOC(=O)c1ccc2c(c1)nc(COc1ccc(OC)cc1)n2CC	0%	1.4	/	/	/	/	/	7	32	/
Cc1ccc(CNC2=NCCCCC2)n1C	-2%	-3.6	0.9	/	/	/	/	-3	-9	-5
CC(=O)N(C)c1ccc(NC(=O)Nc2ccc(C)c(C)c2)cc1	22%	-2.2	-0.1	1.6	3	-10	0.1	1	-2	5
COc1cccc(OC)c1C1=CC(=O)C[C@H](c2ccc3c(c2)OCO3)C1	/	/	0.0	3.0	10	3	-5.4	/	/	-4
COc1cc(/C=N/NC(=O)c2ccc(Cl)cc2)ccc1OCC(=O)N1CC(C)OC(C)C1 (stereo not given)	-1%	/	-0.7	-0.9	4	-5	-0.4	-11	2	-3
Cc1noc(C)c1NC(=O)Nc1cccc2c1O[C@H](CN(C)C(=O)Nc1ccc(C(F)(F)F)cc1)[C@@H](C)CN([C@H](C)CO)C2=O	/	/	0.9	-2.8&5.2	-5&6	-3&-8	0.1&1.0	/	/	1
FC(F)(F)c1cc(-c2ccco2)nc(-n2nc(C(F)(F)F)cc2C2CC2)n1	-12%	4.3	-0.2	/	/	/	/	33	13	5
CCCC12CN3CCN(CC(C3)/C1=N\NC(=O)Nc1ccccc1)C2	-11%	2.5	0.5	/	/	/	/	8	2	-2
CC(=Nc1ccccc1)C1=C(O)CCCC1=O	/	-1.4	0.3	-5.1	13	13	3.0	-13	-7	-5
COc1ccc(NS(=O)(=O)N2CCOCC2)cc1	/	3.7	2.2	-0.7	11	8	-2.5	-18	11	-1
O=C(COC(=O)c1ccc(Br)o1)NCc1ccc2c(c1)OCO2	/	/	-0.9	1.4	9	11	2.8	/	/	-5
CCN(CC1CCCO1)C(=O)c1cc(COc2ccc(F)cc2F)on1 (stereo not given)	/	-1.8	0.1	1.7	0	3	2.0	-10	0	-6
CCN1/C(=C\C(=S)Nc2ccccc2)Sc2ccccc21	-23%	-2.1	-0.4	9.8	/	/	/	14	0	0
Cc1ccc(NC(=O)c2ccc(Cl)c(S(=O)(=O)N3CCCC3)c2)nc1	3%	1.5	0.0	0.5	-1	-3	0.3	-3	5	-2
CC(C)c1ccc(NC(=O)CN2CCN(c3ccccn3)CC2)cc1	0%	2.5	-0.1	-1.4	7	6	-1.4	3	0	0
Cc1ccc(Cn2ccc(NC(=O)CCSc3nc(-c4ccco4)cc(C(F)(F)F)n3)n2)cc1	0%	?	1.6	/	/	/	/	11	/	-6
CCCCNC(=O)c1cn(CC)c2ccc(S(=O)(=O)N3CCCCCC3)cc2c1=O	/	-1.1	0.4	-0.3	4	6	3.0	47	-6	15
CCOCC(=O)N(CC)Cc1ccccc1	-7%	?	0.3	-2.1	24	8	4.2	-16	1	-5
COCc1cc(C)nc(Oc2ccccc2)c1C#N	9%	-2.1	1.7	-0.3	-5	-11	0.1	3	-4	-2
CC(=O)N/C(=C/c1ccc2c(c1)OCO2)C(=O)NCC(=O)O	?	2.3	0.3	/	/	/	/	-16	?	0
CC(=O)Nc1ccc(S(=O)(=O)N[C@@H](C)C(=O)N(C)Cc2cccs2)cc1	/	/	0.2	1.7	2	0	-1.8	/	/	-11
Cc1ccc(Nc2nnns2)cc1	-2%	-4.8	0.3	/	/	/	/	-8	-7	0
COc1ccc(C(=O)Nc2ccc(S(=O)(=O)N3CCN(C)CC3)cc2)cc1	/	-3.5	-0.5	-0.3	2	3	-1.1	13	0	/
COc1ccc(NC(=O)C23CCC(C2)C(C)(C)C3=O)cc1 (stereo not given)	-2%	-8.1	0.0	/	/	/	/	13	5	-2
O=C(Nc1ccccc1)C1=C[C@H](c2csc3ccccc23)C[C@H](OCc2ccc(CO)cc2)O1	-3%	-3.5	-0.5	-1.6&-0.7	12	6	2.6	47	8	/
O=C(O)c1ccc(N/N=C/c2ccc(OC(=O)c3cccc(Cl)c3)cc2)cc1	?	-3.4	-7.8	3.6	3	4	-5.9	-4	3	0
Cc1nn(-c2ccccc2)c(C)c1-c1cc(C(=O)N/N=C/c2cccnc2)[nH]n1	2%	-3.7	0.0	-1.5	-6	-2	-1.0	-6	-13	20
Cc1cc(OCc2cc(C(=O)N(C)CCCN3CCOCC3)no2)cc(C)c1Cl	/	7.0	2.1	11	-14	-40	-2.6	13	-14	-4
CCCCCn1nc(C(=O)N(CC(C)C)c2c(N)n(CCCC)c(=O)[nH]c2=O)c2ccccc2c1=O	-1%	-0.5	-0.8	-7.9	2	17	0.3	-17	-1	0
Cc1ccc(CNC(=O)C2CC(c3ccccc3C(F)(F)F)=NO2)o1 (stereo not given)	/	-1.1	0.1	-0.1	6	21	5.6	3	-6	-2
O=c1ncn(-c2cccc([N+](=O)[O-])c2)c2ccccc12	/	-0.2	0.7	1.8	5	12	-2.6	-5	-1	/
Nc1nonc1-n1nnc(C(=O)N/N=C/c2ccc(O)cc2)c1CN1CCCCCC1	-11%	2.9	-0.2	-0.3	1	4	1.2	-1	-1	-3
C=CCSc1nnc2c(n1)OC(c1c(C)[nH]n(-c3ccccc3)c1=O)Nc1ccccc1-2 (stereo not given)	-3%	2.0	-0.6	/	/	/	/	-2	-28	-4
CCOc1ccccc1N1C(=O)CC(N(O)c2ccccc2)C1=O (stereo not given)	16%	1.6	0.1	3.8	3	-2	2.1	-13	1	/
O=C1CNC(=S)N1CCCc1ccccc1	?	3.5	0.2	/	/	/	/	-12	-1	-6
COc1ccc2c(c1)[nH]c1c(=O)n(/N=C/c3ccc(OC)c(CN4CCCCC4)c3)cnc12	-5%	4.6	-0.5	-6.3	-7	3	-1.5	34	-9	3
Cc1ccc(CC(=O)NCc2ccc3c(c2)OCO3)cc1	0%	-2.6	-1.9	/	/	/	/	-6	-2	-4
CC(=O)c1sc(-c2ccccc2)cc1NS(=O)(=O)c1ccccc1	/	7.3	-0.3	/	-41	-54	-6.2	-10	-7	3
CCc1ccc(CNC(=O)CCC(=O)n2ncc3cc(C)ccc32)cc1	/	3.4	0.9	-7.7	12	12	0.2	3	-5	2
CC(=O)Nc1ccc(Oc2cnccn2)cc1	21%	-4.1	0.2	/	/	/	/	5	0	-3
COc1ccc(-c2ccnc3nc(N4CCN(c5ccccc5)CC4)nn23)cc1	-2%	2.5	0.1	/	/	/	/	26	51	10
Nc1c2c(=O)oc(-c3ccccc3)cc2nn1-c1ccccc1	24%	5.5	-0.5	/	/	/	/	3	-3	-2
COc1cc(C2NC(=S)NC(C)=C2C(=O)c2ccccc2)ccc1O (stereo not given)	-7%	?	0.2	/	/	/	/	2	36	4
(listing goes on)
SMILES	Vif TR-FRET	RanGTP-Imp inh	A1 inh	MLL AF4-AF9 inh	rRNA inh HTS	rRNA inh HTS OD600	rRNA inh HTS RFP	T cruzi repl	Calb FLC	Beta apoptosis
Cc1ccc(CN2CCN(C3CCCC3)C(CCO)C2)s1 (stereo not given)	/	3.4	-0.2	-2.2	15	7	-4.5	15	-12	1
CCCCCC1CCC(C(=O)NCCN2CCOCC2)CC1 (stereo not given)	-5%	-1.8	-0.1	-2.4	-1	-4	0.7	10	-6	-6
CCOC1(OCC)C(c2ccc(Cl)cc2)C(C#N)(C#N)C1(OCC)OCC (stereo not given)	4%	?	0.8	/	/	/	/	-12	-3	-7
Cc1ccc(Oc2nc3ccccn3c(=O)c2/C=C(\C#N)C(=O)Nc2c(C)n(C)n(-c3ccccc3)c2=O)c(C)c1	/	6.2	0.8	-4.1	7	6	1.6	-3	-24	-15
O=[N+]([O-])c1cccc(C2=NCCS2)c1	1%	-1.6	0.5	/	/	/	/	-6	-1	-6
CN1C(=O)C(=O)/C(=C(/O)c2ccc(Br)cc2)C1c1cccc([N+](=O)[O-])c1 (stereo not given)	/	-7.2	-0.5	-0.2	9	13	5.5	-17	5	/
CN(C)C(=O)N1CCNCC1	4%	-2.9	2.0	-2.2	11	10	-0.8	1	-7	0
Cc1nc2nc3c(cn2n1)C(=O)CC(c1ccccc1)C3 (stereo not given)	23%	-32	/	/	/	/	/	-7	4	/
CSc1ccccc1OCc1cc(C(=O)NCCN2CCCc3ccccc32)no1	7%	2.1	0.4	1.3	-6	-11	-0.1	13	3	-6
CCOc1ccc(CN2CCNC(=O)C2CC(=O)NCc2csc(C(C)C)n2)cc1 (stereo not given)	/	-1.5	/	7.3	-1	10	2.0	1	-10	/
COCCn1cnc2c(c1=O)c1nc3ccccc3nc1n2/N=C/c1ccc(OC)c(OC)c1	-6%	3.5	2.1	-2.3	10	-1	1.5	38	13	22
CCN(CC)c1cc2nc(C)n(Cc3ccccc3)c(=O)c2cc1NC(=O)C1CC1	1%	-0.2	-1.1	/	/	/	/	17	-4	3
CN(C(=O)c1cccc(C#N)c1)c1nnc(-c2cnccn2)s1	-3%	-0.5	1.5	/	2	8	-6.5	-4	7	7
Cc1ccc(C)c(OCC(O)CN2CCC(CN3C(=O)c4cccc5cccc(c45)C3=O)CC2)c1 (stereo not given)	/	-0.3	-0.6	/	/	/	/	52	0	67
Cc1n[nH]c(C)c1S(=O)(=O)N1CCN(C2CCCCC2)CC1	1%	?	-0.1	/	/	/	/	-17	-8	-4
O=C(Cn1cncn1)N/N=C/c1ccccc1O	0%	-2.0	0.9	0.6	-2	-7	-4.6	12	4	-4
COc1ccc(S(=O)(=O)Nc2ccccc2C(=O)N2CCOCC2)cc1OC	/	-2.4	-0.1	-1.9	4	14	0.9	-4	-8	5
O=C(OCC(=O)N1CCCCCC1)c1ccc([N+](=O)[O-])cc1Cl	3%	-2.3	0.5	1.5	3	-5	-5.8	0	-2	-3

Source: PubChem

Some of the compounds tested; count on the stated rates, not on these rows.
